# VACV mCherry inh = qHTS for Stage-Specific Inhibitors of Vaccinia Orthopoxvirus: mCherry Reporter Primary qHTS; Vaccinia virus mCherry reporter infection, fluorescence; about a quarter of the inactives have no number; Potency, µM (titrated, usually from 36.5 µM), without a hit: at the top dose activity change, negative = inhibition, usual class: inhibitors; 0.63% of 310,000 active; AID 720579, 2013; active = well fitted inhibition curve with a large enough effect; inconclusive = small, poorly fitted or top-dose-only effect; inactive = no such curve, though single readings can be large or run the other way; tested in A549 cells; further: nearly all actives have a fitted effect of over 35% in size; inactives centre near -10
# VACV Venus inh = qHTS for Stage-Specific Inhibitors of Vaccinia Orthopoxvirus: Venus Reporter Primary qHTS; Vaccinia virus Venus reporter expression, fluorescence; 0.46% of 330,000 active; Potency, µM (top dose mostly 36.5 µM), without a hit: at the highest dose activity change, negative = inhibition, actives largely listed as inhibitors; active means well fitted inhibition curve with a large enough effect; inconclusive means small, poorly fitted or top-dose-only effect; inactive means no such curve, though single readings can be large or run the other way; tested in A549 cells; further: nearly all actives have a fitted effect of over 30% in size; inactives centre near -10
# * = called active by the depositor; i = inactive; ? = inconclusive; . = not tested or not shown; & = joins results of further samples; [ ] = dose if it differs, or a comment. On the % scale 0 is the no-effect control and ±100 the full control effect; potency means the concentration at half of the fitted maximal effect.
SMILES,VACV mCherry inh,VACV Venus inh
Cc1ccc(C(=O)NC(=S)NNC(=O)COc2ccc([N+](=O)[O-])cc2)cc1,i,-6%
CN(C)c1cccc(C(=O)OCC(=O)N(Cc2ccccc2)C2CCS(=O)(=O)C2)c1 (configuration not stated),-8%,-12%
CCC(NC(=O)c1cc(COc2cncc(Cl)c2)on1)c1ccc(C)cc1 (configuration not stated),-24%,-5%
CCCN(CC(=O)Nc1ccc(C)cc1Br)CC(=O)Nc1ccc(F)c(F)c1F,-1%,-18%
CCOC(=O)C1=C(c2ccccc2)OC(N)=C(C#N)C1C1CCCCC1 (configuration not stated),.,-22%
CCOP(=O)(OCC)OCC,-16%,-6%
COCCn1c(=O)[nH]c2cc(C(=O)NCCN3CCN(c4cccc(Cl)c4)CC3)ccc2c1=O,?,-28%
CCn1c2ccccc2c2cc(NC(=O)COC(=O)c3ccccc3O)ccc21,-2%,2%
Cc1ccc(NC(=O)Cn2cc(S(=O)(=O)N3CCCC3)c(S(=O)(=O)N3CCCC3)c2)cc1F,-21%,-22%
Brc1cccc(C2Nc3cccc4cccc(c34)N2)c1,i,-8%
Cn1c(=O)n(C)c2cc(NC(=O)c3cccc([N+](=O)[O-])c3)c(Br)cc21,0%,-1%
CC(=O)Nc1ccc(C(=O)NN2C(=O)c3ccccc3C2=O)cc1,-1%,2%
CCOC(=O)C1(Cc2ccccc2)CCN(Cc2cnn(-c3ccccc3)c2)CC1,i,-13%
O=C(Nc1ccc(O)c(C(=O)O)c1)c1cccc(NC(=O)c2ccco2)c1,-15%,-2%
CCOc1ccc(-n2c(-c3ccccc3)c[nH]c2=S)cc1,-18%,-7%
CCCCCCOc1ccc(C(=O)NCCCn2ccnc2)cc1,i,-12%
COc1ccccc1Oc1ncnc2c1cnn2-c1ccccc1,-9%,-3%
CCOC(=O)c1c(NC(=O)CN2C(=O)NC3(CCCCC3C)C2=O)sc(C(=O)N(C)C)c1C (configuration not stated),i,-7%
O=C(CNC(=O)Cc1ccccc1)NCC(=O)OCc1ccccc1,.,-9%
CC(C)c1nnc(NC(=O)Cc2cccs2)s1,13%,-3%
COc1ccc(-c2csc(-c3c(N)c(C(=O)c4ccccc4)n4ccccc34)n2)cc1,-14%[7.34 µM],-5%[7.34 µM]
CCc1ccc(NC(=O)N2CCN(Cc3cc(=O)n4nc(-c5ccccc5OC)sc4n3)CC2)cc1,-11%,-16%
COc1ccc(CNC(=O)C2CCCN2S(=O)(=O)c2ccccc2)cc1 (configuration not stated),-10%,-4%
COc1cccc(S(=O)(=O)Nc2ccc(C(=O)Nc3ccncc3)cc2)c1,-18%,-30%
COc1ccc(C)cc1NC(=O)CN1CCCN(S(=O)(=O)c2ccc(Br)cc2)CC1,-8%,-11%&-15%

# (further entries)
SMILES,VACV mCherry inh,VACV Venus inh
CCOC(=O)c1c(C(=O)OCC)c(C)n(N2C(=O)CSC2=S)c1C,-19%[1.46 µM],27%
O=C(Nc1cccc(C2=NCCN2)c1)Nc1cccc(C2=NCCN2)c1,-22%,?
O=C(Nc1cccc(C(F)(F)F)c1)c1cccc(NS(=O)(=O)c2ccc(Br)c(C(=O)O)c2)c1,-16%,8%
c1cncc(-c2cncnc2-n2ccnc2)c1,-28%,-17%
O=C(Cc1ccccc1)Nc1ccc(CN2CCOCC2)cc1,i,-9%
O=C(Nc1ccccc1)/C(=C/c1cccc(Br)c1)NC(=O)c1ccco1,-11%,-15%
CCOC(=O)C1=C(O)/C(=C/c2ccc(OCC(=O)O)c(OC)c2)SC1=Nc1ccc(OCC)cc1,-14%,-29%
CCc1ccc(NC(=S)NC2CC3CCC(C2)N3Cc2ccco2)cc1 (configuration not stated),?,?
S=c1[nH]nc(-c2cccnc2)n1Cc1ccccc1,0%,?
OC(c1cccc(Cl)c1)c1ncc(-c2cccc3ccccc23)[nH]1 (configuration not stated),-8%,-5%
Cc1nc(SCC(=O)Nc2ccc(CN3CCCC3)cc2)c2c(C)c(C)sc2n1,14%,-26%
CN(Cc1ccccc1F)C(=O)C1CCCN(C(=O)c2ccc(Cl)cc2)C1 (configuration not stated),-20%,-10%
COCC(=O)n1nc(-c2ccco2)nc1NCc1ccccc1Cl,-21%,-21%
Cc1nc(-n2nc(C)c(CCC(C)C)c2C)sc1C(=O)Nc1cccc(Cl)c1C,1%,-2%
O=C(Nc1cccc(C(=O)O)c1)/C(=C\c1ccc2c(c1)OCO2)NC(=O)c1ccccc1Br,-1%,-18%
CCOC(=O)c1c(NC(=O)/C=C/c2ccc(OCC)c(OC)c2)sc2c1CCC2,-8%,5%
O=S(=O)(c1cnc[nH]1)N1CCN(c2ccccc2)CC1,-10%,-12%
CCOc1ccc(CNc2ncc(-c3ccccc3)n2C)cc1,-12%,-22%
CNC(=O)c1nnn(-c2ccccc2)c1C(=O)NC,.,-22%
Cc1cc(C)cc(NC(=O)CSc2nc3c([nH]c4ccccc43)c(=O)n2-c2ccc(F)cc2)c1,-14%,-4%
O=C(NCC(O)COc1ccc([N+](=O)[O-])cc1)c1ccccc1 (configuration not stated),i,-23%
Cn1c(SCc2ccc(Cl)cc2)nnc1C1CC1,i,-8%
O=C(O)c1ccc(C2SCC(=O)N2Cc2ccco2)cc1 (configuration not stated),i,-5%
COc1ccc(NC(=O)C2=C(C)Nc3ncnn3C2c2cccn2C)cc1 (configuration not stated),-9%,-4%
COC(=O)c1cc(C(=O)OCC(=O)Nc2cc(C)on2)cc([N+](=O)[O-])c1,i,-10%

# Next part
SMILES,VACV mCherry inh,VACV Venus inh
COc1cccc(CN(C)C(=O)c2cc(-c3cccs3)nc3ccccc23)c1,-23%,-6%
CN1CCN(C(=O)C2=C[C@H](C(C)(C)C)C[C@H](OCCCCO)O2)CC1,-15%,-7%
CCc1ccc(NS(=O)(=O)c2ccc3[nH]cc(C(=O)N4CCc5ccccc54)c(=O)c3c2)cc1,-27%,-19%
Cc1onc(-c2ccccc2)c1C(=O)N1CCN(S(=O)(=O)c2ccccc2C(F)(F)F)CC1,-14%,-2%
Cc1ccc([N+](=O)[O-])cc1NC(=O)CSc1nnc(C)n1CC1CCCO1 (configuration not stated),9%,3%
Cn1c(=O)c2c(nc(OCc3cccnc3)n2Cc2ccccc2)n(C)c1=O,-9%[1.46 µM],-28%
Cc1cc(C)n(NC(=S)NC2CCCC2)c(=O)c1C#N,i[7.34 µM],-18%[7.34 µM]
CN1CCN(C(=O)C(=O)c2cn(CC(=O)N3CCOCC3)c3ccccc23)CC1,-20%,-5%
Cc1cc(C(=O)O[C@H]2[C@H](C)NS(=O)(=O)[C@H]3C[C@@H]4C=C[C@]23O4)cc([N+](=O)[O-])c1,-17%&-4%,-4%&-11%
CN1CN(C)c2ccc([N+](=O)[O-])c3cccc1c23,i,-13%
CC(=Cc1cccs1)C(=O)c1ccccc1,i,-11%
CCc1cccc(CC)c1NC(=O)COC(=O)CCc1cc(OC)c(OC)c(OC)c1,-14%,-13%
CC(=O)CC(=O)Nc1nc(C)cc(C)n1,3%,-6%
CC(C)(C)C(=O)O/N=C(\N)COc1cccc(Cl)c1,i,-6%
CSc1cccc(NC(=O)c2sc3nc4n(c(=O)c3c2C)CCC4)c1,i,-17%
COc1ccc(NC(=O)/C=C/C(=O)O)c(OC)c1,-3%,-4%
COc1cccc(N=CC2=C(O)CCCC2=O)c1,i,-3%
CCOc1ccc(S(=O)(=O)Nc2ccc(-c3ccc(OC)nn3)cc2)cc1,i,0%
O=C(Nc1ccncc1)c1ccccc1F,-17%,-12%
Cc1ccc(C(C(=O)NC2CCCC2)N(C(=O)c2csnn2)c2cccc(F)c2)o1 (configuration not stated),-24%,-1%
CC(C)C/C(O)=C/c1nc2cc(Cl)ccc2oc1=O,-21%,-27%
C=CCNC(=O)C1CC(=O)N(c2ccc(OCC(=O)Nc3ccc(C)cc3)cc2)C1 (configuration not stated),-4%,1%
O=C(CSCc1ccc(F)cc1)Nc1nc2c(s1)CCCC2,.,?
Cc1cc(Br)ccc1NC(=O)CN(C)C(=O)C1CCN(C(=O)c2ccc(F)cc2)CC1,-3%,-16%
CCC(=O)Nc1ccc(/C(C)=N\NS(=O)(=O)c2ccc(C)cc2)cc1,.,3%

# Next structures
SMILES,VACV mCherry inh,VACV Venus inh
CC1CCCN(CCCN2C(=O)C3C(C(=O)Nc4cccc(Cl)c4)C4C=CC3(O4)C2C(=O)NC2CCCCC2)C1 (configuration not stated),i,-10%
COc1cccc(C(=O)NC(C)c2cccc3ccccc23)c1OC (configuration not stated),-5%,-1%
Cc1ccc(N2C(=O)CCC2(C(N)=O)c2ccccc2)cc1 (configuration not stated),i,?
CC1(C)CC(=O)C=C(c2ccc3ncccc3c2)C1,i,-16%
C[C@]12c3[nH]c4ccc(Cl)cc4c3CCN1C(=O)[C@@H](CC(=O)NCCCn1ccnc1)C[C@@H]2C(=O)N1CCOCC1,i,-4%
COc1ccc(-c2sc(Nc3ccccc3)n[n+]2-c2ccccc2)cc1Br,-18%,-4%
O=C(CN(Cc1cccs1)C(=O)CNC(=O)c1ccco1)NC1CCCCC1,i,-12%
CCc1nc(SC)ncc1C(=O)N1CCN(c2cc(Cl)ccc2C)CC1,-21%,-12%
CCOC(=O)C1=CN(Cc2cccc(F)c2)S(=O)(=O)N(CC)C1c1ccc2ccccc2c1 (configuration not stated),-13%,-18%
c1ccc(-c2ccc(SCc3cccnc3)nn2)nc1,11µM*,?
COc1cc(NS(=O)(=O)c2ccc(NC(=O)c3ccco3)cc2)nc(OC)n1,i,-8%
CCCCCCCCCCCCCCC[C@@H](O)[C@H](CO)NC(C)=O,-16%[3.33 µM],-13%[3.33 µM]
COC(=O)c1ccc(Cl)c(NC(C)=O)c1,-14%,-11%
CSC[C@H]1CN(Cc2cccnc2)C(=O)[C@@H]1CC(=O)Nc1ccc(Br)cc1,-5%,-17%
COc1ccc(NC(=O)c2ccc(-c3nc(COc4ccccc4)c(C)o3)cc2)cc1,-13%,-12%
Cc1ccc(C(=O)Nc2ccc3c4c(cccc24)CC3)cc1[N+](=O)[O-],-3%,-14%
COc1ccc(CCNC(=O)/C=C/c2cc(OC)c(OC)c(OC)c2)cc1OC,-13%,-11%
N#C/C(=C\c1ccc(N2CCOCC2)o1)c1ccccc1,i,-5%
CCSc1nnc(NC(=O)CSc2nc3c(c(=O)n2CC)SC(C)C3)s1 (configuration not stated),-7%,-9%
Cc1c(OCc2ccccc2)c(=O)ccn1Cc1ccccc1,-24%[1.46 µM],-20%
Cc1cccc(OCCCSc2nc3ccccc3[nH]2)c1,-26%,-28%
O=C(NCc1ccc(F)cc1Cl)c1ccc(CSCc2ccccc2Cl)o1,-14%,-7%
CCN(C(=O)COC(=O)c1nc2nc(C)cc(C)n2n1)C1CCCCC1,i,-17%
COc1cccc(-c2cnc3c(NC=O)cc(-c4ccoc4)cn23)c1,7%,-12%
CC1(Oc2ccc(Cl)cc2)CCN(Cc2csc3ccccc23)C1 (configuration not stated),-6%,1%

# Fetched by structure from the entries so far:
SMILES,VACV mCherry inh,VACV Venus inh
OC(c1cccc(Cl)c1)c1ncc(-c2cccc3ccccc23)[nH]1 (configuration not stated),-8%,-5%
Cc1ccc(N2C(=O)CCC2(C(N)=O)c2ccccc2)cc1 (configuration not stated),i,?

# (more compounds)
SMILES,VACV mCherry inh,VACV Venus inh
CCNc1nnc(CCn2nc(C)c(Br)c2C)s1,-1%,-17%
CC(C)[C@H](NC(=O)C1CCN(C(=O)[C@@H]2CCCN2)CC1)C(=O)NCc1ccc(F)cc1,-28%,-27%
O=C(NC1CCCCC1)N(Cc1ccccc1)Cc1ccco1,-2%,-18%
COc1ccc(C(=O)CSc2n[nH]c(-c3ccncc3)n2)cc1[N+](=O)[O-],-13%,-16%
CC(O)(c1cccc(F)c1)c1nc(/C=C/c2ccccc2)cs1 (configuration not stated),i,-7%
O=C(NCC(c1cccs1)N1CCOCC1)c1cc2ccccc2o1 (configuration not stated),-1%,-19%
COc1ccc(C(=O)NCC(c2ccco2)S(=O)(=O)c2ccc(F)cc2)cc1 (configuration not stated),-6%,-7%
COc1cccc(C(C(=O)NC(C)(C)C)N(CC(C)C)C(=O)CCC(=O)Nc2cc(C)on2)c1OC (configuration not stated),-6%,5%
CCN1C(=O)c2ccccc2S(=O)c2ccc(C(=O)N3CCOCC3)cc21 (configuration not stated),-11%,-13%

# Ordered by SMILES length (highest first): part of the list above
SMILES,VACV mCherry inh,VACV Venus inh
CCc1ccc(NS(=O)(=O)c2ccc3[nH]cc(C(=O)N4CCc5ccccc54)c(=O)c3c2)cc1,-27%,-19%
O=C(Nc1cccc(C(=O)O)c1)/C(=C\c1ccc2c(c1)OCO2)NC(=O)c1ccccc1Br,-1%,-18%
Cc1ccc(C(=O)NC(=S)NNC(=O)COc2ccc([N+](=O)[O-])cc2)cc1,i,-6%
COc1ccc(NC(=O)c2ccc(-c3nc(COc4ccccc4)c(C)o3)cc2)cc1,-13%,-12%
CCCN(CC(=O)Nc1ccc(C)cc1Br)CC(=O)Nc1ccc(F)c(F)c1F,-1%,-18%
COc1cccc(CN(C)C(=O)c2cc(-c3cccs3)nc3ccccc23)c1,-23%,-6%
O=C(CN(Cc1cccs1)C(=O)CNC(=O)c1ccco1)NC1CCCCC1,i,-12%
CCN(C(=O)COC(=O)c1nc2nc(C)cc(C)n2n1)C1CCCCC1,i,-17%
O=C(NCC(O)COc1ccc([N+](=O)[O-])cc1)c1ccccc1 (configuration not stated),i,-23%
COCC(=O)n1nc(-c2ccco2)nc1NCc1ccccc1Cl,-21%,-21%
O=C(NC1CCCCC1)N(Cc1ccccc1)Cc1ccco1,-2%,-18%
COc1ccc(NC(=O)/C=C/C(=O)O)c(OC)c1,-3%,-4%
c1ccc(-c2ccc(SCc3cccnc3)nn2)nc1,11µM*,?
Cn1c(SCc2ccc(Cl)cc2)nnc1C1CC1,i,-8%
O=C(Nc1ccncc1)c1ccccc1F,-17%,-12%
